From PubChem
VACV mCherry inh – inhibitors of vaccinia virus infection (mCherry reporter signal). Vaccinia virus mCherry reporter infection, fluorescence; about a quarter of the inactives have no number. Potency, µM (top dose mostly 36.5 µM), for the others: top-dose activity change, negative = inhibition, usual class: inhibitors. 0.63% of 310,000 active; active = well fitted inhibition curve with a large enough effect; inconclusive = small, poorly fitted or top-dose-only effect; inactive = no such curve, though single readings can be large or run the other way; tested in A549 cells; note: nearly all actives have a fitted effect of over 35% in size; inactives centre near -10
VACV Venus inh – vaccinia inhibition (Venus reporter); Vaccinia virus Venus reporter expression, fluorescence; Potency, µM (series often up to 36.5 µM), inactives show at the highest dose activity change, negative = inhibition, actives largely listed as inhibitors; 0.46% of 330,000 active; AID 720580; active means well fitted inhibition curve with a large enough effect; inconclusive means small, poorly fitted or top-dose-only effect; inactive means no such curve, though single readings can be large or run the other way; tested in A549 cells; note: nearly all actives have a fitted effect of over 30% in size; inactives centre near -10
Numbers without * were called inactive; i = inactive; ? = inconclusive; . = not tested or not shown; & = joins results of further samples; [ ] = another dose, or the depositor's remark. % is set by controls: 0 for no effect and ±100 for the full control effect; potency is the fitted concentration of half-maximal effect.

#	molecule	VACV mCherry inh	VACV Venus inh
1	O=C1CC(N(C(=O)c2ccco2)c2cccc(Cl)c2)C(=O)N1c1cccc(Cl)c1 (stereo not drawn)	-8.0%	2.2%
2	CCOc1cc(-c2nnc(NC(=O)C3=COCCO3)o2)cc(OCC)c1OCC	-0.5%	-22.5%
3	CSCCC(NS(=O)(=O)c1ccc(Cl)cc1)C(=O)O (stereo not drawn)	i	-9.2%
4	O=C(O)c1ccc(N=Cc2c(O)[nH]c(=O)[nH]c2=O)cc1	-4.8%	-2.9%
5	COc1ccc2c(CC(=O)Nc3ccc(OC)nc3)coc2c1	i	-10.1%
6	O=C(NCCCN1CCOCC1)c1ccc(S(=O)(=O)Nc2ccccc2)cc1	-1.2%	-15.5%
7	COc1ccccc1CNC(=O)N1CCN(S(=O)(=O)c2ccccc2)CC1	i	-2.6%
8	CCc1ccc(OCC(=O)N/N=C/c2cc([N+](=O)[O-])ccc2N2CCCCCC2)cc1	-7.3%	-10.7%
9	Cc1ccccc1-c1nc(CS(=O)(=O)CC(=O)NCc2ccc3c(c2)OCO3)c(C)o1	-1.3%	-5.8%
10	Cc1ccc(NC(=O)CSCC(=O)O)cc1	-22.1%	-7.5%
11	COc1ccccc1NC(=O)CCC(=O)Nc1nnc(C2CCCCC2)s1	i	-4.5%
12	Cc1ccc2[nH]c3c(c2c1)CCNC3=O	-9.8%	-12.1%
13	CCOc1ccc(CCNC(=O)c2ccc(-c3nc(CSc4ccccc4)c(C)o3)cc2)cc1	-0.6%	-2.5%
14	CCc1cccc(NC(=O)C2CCCN(S(=O)(=O)c3cnc[nH]3)C2)c1 (stereo not drawn)	-13.4%[7.34 µM]	-5.6%[7.34 µM]
15	COc1ccccc1CCNC(=O)Cc1ccc(NC(=O)N2CCSc3ncccc32)cc1	-5.1%	-5.7%
16	CC(=O)Nc1ccc(S(=O)(=O)N(Cc2ccco2)Cc2cc3ccccc3[nH]c2=O)cc1	-5.3%	-2.4%
17	CCCCN1C(=O)C(CC(=O)NCC)SC1=Nc1ccccc1 (stereo not drawn)	-10.6%	-9.4%
18	CN(C)C(=O)Cn1c(SCC(=O)NCc2ccc3c(c2)OCO3)nc2ccccc21	.	-9.2%
19	COC(=O)[C@]1(C)CCC[C@@]2(C)C3CC[C@]4(OC(C)=O)C[C@@]3(CCC21)CC4=O (stereo partly drawn)	-24.5%	?
20	CC1=NN(c2ccc(C)cc2C)C(=O)C1C(c1ccccc1)C1C(=O)N(c2ccc(C)cc2C)N=C1C (stereo not drawn)	.	-23.0%
21	COC(=O)c1ccc(C(=O)OC)c(NC(=S)N2CCN(c3ccccc3)CC2)c1	-3.5%	-18.5%
22	CCOc1ccc(C(=O)Nc2c3c(nn2-c2ccccc2)CS(=O)(=O)C3)cc1	i	-3.8%
23	CCOC(=O)c1cnc2c(C)cc(Cl)cc2c1NCCCN1CCOCC1	9.5%	-2.3%
24	Nc1n[nH]c(C(F)(F)F)c1-c1ccccc1	-16.6%	-7.8%
25	O=C1CC(c2cccc(Cl)c2Cl)c2cc3c(cc2N1)OCCO3 (stereo not drawn)	-25.2%	-22.6%
26	O=C(Nc1nsc(-c2ccccc2)n1)c1cccs1	.	-3.1%
27	O=[N+]([O-])c1cccc(COc2ccccc2CN2CCCC2)c1	-4.8%	-3.1%
28	C[C@@H]1CC=C[C@H]2[C@H]1C(=O)N(Cc1ccccc1)[C@H]2c1ccc(C(F)(F)F)cc1	-10.2%	-25.9%
29	CCOc1cccc2sc(N(Cc3cccnc3)C(=O)c3ccco3)nc12	-24.8%	-13.3%
30	CCNC(=O)NCc1c(C)c(C)n(Cc2ccccc2)c1-n1cccc1	-17.4%	-15.8%
31	COc1ccc(-c2noc(-c3cccnc3)n2)cc1OC	i	-1.4%
32	CC(C#N)(NC(=O)CN1CCN(S(=O)(=O)c2cc(C(F)(F)F)ccc2Cl)CC1)C1CC1 (stereo not drawn)	-1.9%	-12.6%
33	COc1ccccc1N1CCN(C(c2ccc(F)cc2)c2nnnn2C(C)C)CC1 (stereo not drawn)	4.2%	0.0%
34	COc1ccc(NC(=O)/C(C#N)=C/c2ccc(-c3ccccc3C(=O)O)o2)cc1	i	-3.3%
35	C[C@@H]1CN([C@H](C)CO)C(=O)c2c(c3ccccc3n2C)-c2ccccc2CO[C@@H]1CN(C)C(=O)Nc1ccccc1C(F)(F)F	-20.9%	-6.5%
36	CCOc1ccc(S(=O)(=O)N2CCN(C(=O)c3sccc3C)CC2)cc1	.	-17.7%
37	COC(=O)c1c(N)sc(C(C)=O)c1C	i	-14.7%
38	CCc1cccc(CC)c1-n1c(SCC(=O)c2c(N)n(C)c(=O)n(C)c2=O)nnc1-c1cccnc1	-8.5%	-6.4%
39	CCc1ccc(-n2cnc3cc(C(=O)NCc4ccc(C)cc4)ccc32)cc1	-10.4%	-8.9%
40	CN(C)c1ccc(C=c2c3ccccc3n3c2cc(-c2ccc(Cl)cc2)[n+]3C)cc1	6.8%	49.8%[activator]
41	C/C(CC(=O)Nc1ccc([N+](=O)[O-])cc1)=N\NC(=O)c1ccccc1[N+](=O)[O-]	-2.4%	-17.9%
42	Cc1ccccc1NC(=O)CSc1nnc(NC(=O)c2ccco2)s1	i	-3.5%
43	COc1ccccc1CCNC(=O)c1cccn1-c1nnc(N2CCCCC2)s1	0.2%	-9.9%
44	Cc1cccc(C)c1-n1nnnc1C1(C)CCC(=O)N1Cc1cccc(C(F)(F)F)c1 (stereo not drawn)	-8.0%	-9.9%
45	CC1(C(=O)NS(=O)(=O)c2cccc(OC(F)F)c2)CCN1C(=O)Cc1cccs1 (stereo not drawn)	i	-5.5%
46	Cc1ccsc1C(=O)NCCc1ccc(S(N)(=O)=O)cc1	-7.4%	-4.0%
47	NC(=O)c1c(NC(=O)C2COc3ccccc3O2)sc2c1CCN(Cc1ccccc1)C2 (stereo not drawn)	-16.3%	-15.5%
48	CC(C)CNC(=O)C(=O)NCC1OCCCN1S(=O)(=O)c1ccc2c(c1)OCCO2 (stereo not drawn)	i	-7.9%
49	O=C1CCC(=O)N1CCC(=O)N(C(=O)NC1CCCCC1)C1CCCCC1	i	-3.6%
50	CC(NC(=O)c1ccc(Nc2nc3ccccc3n3nnnc23)cc1)c1ccccc1 (stereo not drawn)	-24.8%	-13.7%
51	O=C(Cc1c[nH]c2ccccc12)NCc1ccc(Cl)cc1	-9.6%	-14.5%
52	COc1ccc(OC)c(Nc2cc(C(=O)NCc3ccccc3)c3ccccc3n2)c1	-11.4%	-7.0%
53	CC1CCCN(C(=O)C(C)Sc2nc(-c3ccccc3)cc(C(F)(F)F)n2)C1 (stereo not drawn)	i	-15.0%
54	CCc1ccc(NC(=O)COc2ccc(Br)cn2)cc1	i	-12.2%
55	COc1ccc(C(=O)NCCS(=O)(=O)N2CCC3(CC2)OCCO3)cc1	-16.2%	-7.5%
56	COc1ccccc1NC(=O)CSc1ncc(CO)n1Cc1ccc(F)cc1	1.5%	-4.8%
57	COc1cc(C(=O)Nc2ccc(NC(=O)c3ccco3)nc2)cc(OC)c1OC	-19.6%	-10.7%
58	COc1ccc(N2CC(NS(=O)(=O)c3cccs3)CC2=O)cc1OC (stereo not drawn)	i	-3.4%
59	Cn1cccc1C(=S)N=P(C1CCCCC1)(N1CCOCC1)N1CCOCC1	i	-5.5%
60	C[C@@H]1CN([C@@H](C)CO)C(=O)c2cc(NC(=O)c3ccccc3)ccc2O[C@@H](C)CCCCO[C@@H]1CN(C)S(=O)(=O)c1ccc(F)cc1	-3.5%	?

Another view of some results above:
55	COc1ccc(C(=O)NCCS(=O)(=O)N2CCC3(CC2)OCCO3)cc1
56	COc1ccccc1NC(=O)CSc1ncc(CO)n1Cc1ccc(F)cc1
57	COc1cc(C(=O)Nc2ccc(NC(=O)c3ccco3)nc2)cc(OC)c1OC

assay / compound	55	56	57
VACV mCherry inh	-16.2%	1.5%	-19.6%
VACV Venus inh	-7.5%	-4.8%	-10.7%

Further records
#	molecule	VACV mCherry inh	VACV Venus inh
61	O=C(NCCN1CCCC1=O)Nc1ccccc1	i	-4.1%
62	C[C@@]12C(=O)Nc3cc(F)ccc3C(=O)N1[C@H]1c3ccccc3OC[C@@H]1[C@@H]2c1ccccc1	i	-29.8%
63	COc1ccc(-c2cc(C(=O)O)n(Cc3ccccc3)n2)cc1	2.0%	-3.9%
64	CCc1ccc2c(c1)c1nnc(NN)nc1n2CC	-20.6%	-23.9%
65	COCCNC(=S)N/N=C(\C)c1ccc(Cl)s1	8.91µM*	-24.2%
66	CCCCNC(=O)Cn1c(=O)cc(C)c2c(C)nn(-c3cccc(Cl)c3C)c21	i	-10.2%
67	CN(C)c1oc(COc2ccccc2F)nc1C#N	-17.6%	1.3%
68	Cc1ccc(C)c(NC2=NCC(=O)N2C2CCCCC2)c1	-15.9%	-15.1%
69	O=C(NC(c1ccc(Cl)cc1)c1cc(Cl)c2cccnc2c1O)c1cccnc1 (stereo not drawn)	-17.3%	-24.1%
70	COC(=O)[C@@]1(Cc2ccccc2)[C@H]2C(=O)N(C)C(=O)[C@H]2[C@H]2CN=C(SCc3ccccc3)N21	?	-29.1%
71	Clc1nc(NCc2cccs2)c2[nH]cnc2n1	-29.6%&7.7%	-26.0%&-6.4%
72	CC(C)CC(N)c1csc(Nc2ccccn2)n1 (stereo not drawn)	?	?
73	O=C1CN(C(=O)COC(=O)/C=C/c2ccc(OC(F)F)cc2)c2ccccc2N1	-13.3%	?
74	COc1ccc2oc(=O)c(C(=O)NCCc3c(C)[nH]c4c(Cl)cccc34)cc2c1	-11.1%	-7.2%
75	COCCCN1CC(=O)N2C(c3cccc(OC)c3)c3[nH]c4ccccc4c3C[C@H]2C1=O (stereo partly drawn)	-0.5%	-8.8%
76	COc1ccc(-c2cc3ccccc3n2CC(O)CN2CCOCC2)cc1 (stereo not drawn)	-19.2%	-10.2%
77	CCCCOc1ccc(C(=O)NCC(=O)NCC(c2ccco2)N2CCCCC2)cc1 (stereo not drawn)	-19.1%	-15.6%
78	COc1ccc(C(C(=O)NC2CCCC2)N(C(=O)c2csnn2)C2CC2)cc1 (stereo not drawn)	-5.7%	2.0%
79	COc1cccc(-n2c(=S)sc3c(=O)n(-c4ccccc4C)c(SCC(=O)O)nc32)c1	-6.8%	-17.8%
80	CCOC(=O)C1(Cc2ccccc2C(F)(F)F)CCN(Cc2ccc(COC)o2)CC1	-23.7%	-8.9%
81	CC(Sc1nnc(C(C)N(C)C)n1-c1ccc(Cl)cc1)C(=O)Nc1ccc2c(c1)OCO2 (stereo not drawn)	-3.2%	-10.5%
82	CC1Nc2ncnc(N3CCN(c4ccccn4)CC3)c2N(Cc2ccccc2)C1=O (stereo not drawn)	-0.5%	-28.7%
83	COc1ccc(Nc2nc(-c3ccccc3)c3cc(Br)ccc3n2)cc1	-12.9%	-11.6%
84	S=c1[nH]nc(-c2ccc3ncccc3c2)n1-c1ccc2c(c1)OCCO2	i	-8.5%
85	CN(C)c1ccc(-c2[nH][nH]c(=O)c2NC(=O)c2ccccn2)cc1	10.7%	-6.1%
86	Cc1ccccc1-c1n[nH]c(=S)n1/N=C/c1c(C)nn(-c2ccccc2)c1C	-6.9%	0.8%
87	CCOC(=O)[C@]12Cc3cc(C)ccc3[C@H]1N(C1CCCCC1)C(=O)c1ccccc12	?	?
88	COc1ccc(C(=O)NN(C)c2nc(-c3ccccc3)cc(C)c2S(C)(=O)=O)cc1	.	-1.1%
89	NS(=O)(=O)c1ccc(CCNC(=O)CSc2cccs2)cc1	-1.6%	-7.4%
90	Cn1c(CNC(=O)c2ccccc2F)nnc1SCCOc1ccccc1	-5.5%	-5.4%
91	O=C(c1sccc1-c1ccccc1)N1CCN(S(=O)(=O)c2ccccc2F)CC1	-30.6%	-22.0%
92	CCOC(=O)C1=CC[C@@H](c2ccccc2)N(S(=O)(=O)c2ccc(C)cc2)[C@H]1c1ccc(CC)cc1	41.2%[activator]	2.4%
93	Cc1ccc(S(=O)(=O)N2CCC[C@H]2C(=O)OCCN2C(=O)c3ccccc3C2=O)cc1	-11.8%	-3.7%
94	CCOC(=O)Nc1nnc(-c2cccc(OC)c2)s1	-0.4%	-14.5%
95	COc1ccc(CN2C(=O)CN=C2Nc2ccc(C)cc2C)cc1	-22.8%	-9.0%
96	Cc1ccc(CNc2nc3c(c(=O)n(C)c(=O)n3C)n2Cc2ccc(Cl)cc2)cc1	-14.9%	8.8%
97	C[C@H](O)c1[nH]c2cc(F)ccc2c1[C@H](C)O	i	7.0%
98	COC1CC(=O)C2OC(c3ccccc3)OCC2O1 (stereo not drawn)	i	-12.2%
99	Cc1ccc(S(=O)(=O)CCc2nc3ccccc3s2)cc1	.	-21.1%
100	CCCCSc1ncnc2c1ncn2C1CCCCO1 (stereo not drawn)	i	-10.3%
101	Cc1cc(-c2ccco2)n(CC(=O)NCc2ccco2)n1	9.4%	-0.6%
102	COCCN=C1Sc2nc3c(C)cccc3cc2CN1Cc1ccco1	-20.9%	?
103	CCc1cccc(NC(=O)CCNS(=O)(=O)c2ccc3c(c2)oc(=O)n3C)c1	-0.5%	-12.4%
104	Cc1ccc(N2CC(C(=O)Nc3ccccn3)CC2=O)cc1 (stereo not drawn)	-12.5%	-4.3%
105	c1ccc2c(c1)[nH]c1ccncc12	-0.8%	-8.6%
106	CC1CCCC(C)N1CCCNC(=O)c1ccc2c(c1)NC(=O)c1ccccc1S2 (stereo not drawn)	-14.7%	-26.6%
107	COc1ccc(-c2nc3ccncc3[nH]2)cc1OC	-11.1%	-3.9%
108	COc1ccc(NC(=O)/C(=C\c2ccco2)NC(=O)c2ccco2)cc1	-1.1%	-5.7%
